T cruzi inh: blocks replication of Trypanosoma cruzi. T. cruzi beta-gal in NIH3T3, luminescence, 90 h. actives 1.4% (n = 300,000). AID 1885. inhibition, % (no concentration beside the values);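 active means mean inhibition across valid replicates above about 55%, limit read from the data; inconclusive means mean below that limit but half or more replicates reach it; inactive means mean below it, under half of replicates reach it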;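 further: signal also drops with host cell toxicity which is not excluded here; 0% = plate median of DMSO wells and 100% = zero luminescence signal; higher percent means less beta-gal luminescence so fewer parasites; stock transfer was 50 nL into about 50 µL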
Bfl-1 A1 inh: inhibitors of the anti-apoptotic protein A1, read as caspase activation. MEF A1-2A-BIM cells, Caspase-Glo 3/7 luminescence, 3 h; percent of clofoctol response, vehicle zero. caspase activation, % (no concentration beside the values). actives 0.066% (n = 330,000). AID 2462;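 active means over half of replicate activation scores above 10%, or exactly half above 10 with the replicate mean above 10; inconclusive means replicate mean below 10 yet half the replicates above 10; inactive means over half of replicates below 10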;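 further: wells of about 30 µL received 50 nL stock; many hits fall short of the cut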
Beta apoptosis: blocks beta cell apoptosis. INS-1E cytokine-induced death, ATP luminescence, 48 h; percent of positive-control rescue, neutral wells zero. actives 0.8% (n = 300,000). protection from apoptosis, % (concentration not given with the values). AID 435005;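 active means all replicates at 75% or more, or half of them and the mean; inconclusive means half reach 75% but not the mean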;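 further: 0% = cytokine-treated negative control wells and 100% = positive control rescue; higher means more ATP so stronger rescue from cytokine killing; wells of about 40 µL received 100 nL stock; the first replicate is given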
UCH37 inh: human UCH37 deubiquitinating enzyme inhibition; Q9Y5K5; purified proteasome/UCH37, Ub-AMC cleavage fluorescence; inhibition, % (test concentration not listed); actives 0.33% (n = 330,000);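 active means mean of two replicates above 20%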;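 further: 0% = compound-free wells with enzyme and 100% = wells lacking proteasome; stock transfer was 100 nL into about 20 µL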
Target sequence (Q9Y5K5 whole entry, looked up): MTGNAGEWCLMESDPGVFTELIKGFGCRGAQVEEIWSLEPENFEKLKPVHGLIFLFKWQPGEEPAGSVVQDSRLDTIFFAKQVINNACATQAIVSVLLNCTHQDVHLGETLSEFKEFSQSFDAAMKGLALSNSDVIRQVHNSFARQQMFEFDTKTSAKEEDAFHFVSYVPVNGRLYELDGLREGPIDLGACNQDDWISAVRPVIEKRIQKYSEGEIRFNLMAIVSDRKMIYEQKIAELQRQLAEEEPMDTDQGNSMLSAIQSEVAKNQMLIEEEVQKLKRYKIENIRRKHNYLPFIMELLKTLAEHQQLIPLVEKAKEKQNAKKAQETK
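Assay system: Proteasome-bound UCH37. Buffer or medium: pH 7.4 Tris-HCl (50 mM) with ovalbumin, ATP-MgCl2, DTT. Incubation: 30 min preincubation with enzyme, 25 min cleavage at room temperature. Measured by: fluorescence, ex 355 nm, em 460 nm. Read-out basis: percent inhibition. Control set: wells without proteasome as full block, compound-free enzyme plus substrate as uninhibited.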
B2AR ag: agonists of human beta-2 adrenergic receptor inducing internalization; actives 0.43% (n = 340,000); response, % (no concentration beside the values); Am2.2-beta2AR cells, FAP receptor internalization, flow cytometry; reference of the scale not given here; P07550;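 active means response above a set limit, near 3 SD of response in nonfluorescent compounds, cut at about 42% in these data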;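 further: stock transfer was 100 nL into about 11 µL; a reference agonist was the positive control; negative values mostly stem from fluorescent compounds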
Target sequence (P07550 whole entry, looked up): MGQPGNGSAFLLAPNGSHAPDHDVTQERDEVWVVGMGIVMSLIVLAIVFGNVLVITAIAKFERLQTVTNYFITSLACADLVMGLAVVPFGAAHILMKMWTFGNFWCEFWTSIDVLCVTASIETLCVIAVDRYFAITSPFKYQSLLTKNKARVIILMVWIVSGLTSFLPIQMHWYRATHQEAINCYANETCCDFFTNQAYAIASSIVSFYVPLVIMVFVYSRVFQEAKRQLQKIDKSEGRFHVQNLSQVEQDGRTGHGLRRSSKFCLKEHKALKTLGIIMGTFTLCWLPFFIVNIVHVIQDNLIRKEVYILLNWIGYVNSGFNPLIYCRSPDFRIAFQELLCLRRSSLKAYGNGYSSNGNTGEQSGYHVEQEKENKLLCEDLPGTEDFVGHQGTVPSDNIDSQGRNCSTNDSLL
LANA-H2B inh: blocks KSHV LANA binding to histone H2A/H2B. cell-free LANA-H2A/H2B peptide, fluorescence polarization. inhibition, % (concentration not given with the values). Q9QR71. AID 2629. actives 0.6% (n = 320,000); in the data active means inhibition mostly above about 10%, no sharp cut-off; inactive means mostly below about 6.7%;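 further: stock transfer was 7.5 nL into about 10 µL; 0% = median of vehicle wells and 100% = median of positive control wells; one replicate is shown; the record names a cut of 25% in any replicate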
RanGTP-Imp inh: disruptors of Ran-importin-beta complex formation – biochemical, FRET, CFP-Ran, YFP-importin-beta, homogeneous, primary screen; cell-free CFP-Ran/YFP-importin-beta FRET ratio; inhibition, % (no concentration beside the values); actives 1.1% (n = 300,000); AID 2216;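 active means most replicates above 15%; inconclusive means exactly half above 15%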;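 further: 0% = DMSO wells and 100% = Ran loaded with GDP instead of GTP; wells of about 40 µL received 100 nL stock; the first replicate is given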
Calb FLC: affects C. albicans growth with fluconazole; C. albicans CaCi-2 (fluconazole-resistant clinical isolate) + fluconazole, Alamar Blue growth, 48 h; growth inhibition, % (test concentration not listed); actives 0.57% (n = 300,000); AID 1979;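 active means most replicates above 75%; inconclusive means exactly half above 75%; inactive means most below 75%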;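 further: all wells also contain fluconazole at 8 µg/ml as a sub-toxic cotreatment; 0% = median of DMSO wells and 100% = median of geldanamycin control wells; wells of about 8 µL received 7.5 nL stock; the first replicate is given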
An asterisk follows results filed as active; i = inactive; u = inconclusive; x = no result given. The order is random. Share with any hit: about 4.3%.

SMILES	T cruzi inh	Bfl-1 A1 inh	Beta apoptosis	UCH37 inh	B2AR ag	LANA-H2B inh	RanGTP-Imp inh	Calb FLC
O=C(COC(=O)c1cccc([N+](=O)[O-])c1)NCC1CCCO1 (configuration not stated)	-8	-0.2	-5	3.3	9	6.9	2.7	17
O=C(COC(=O)C1CC2C=CC1C2)Nc1ccc2c(c1)OC(F)(F)O2 (configuration not stated)	16	0.6	-4	1.0	-7	-3.0	0.5	-7
CC1(C)Cc2c(sc(NC(=O)/C=C/C(=O)O)c2C#N)CO1	-8	0.2	4	5.2	10	6.3	3.5	-3
COc1cccc(CC(=O)OCC(=O)NCC(=O)Nc2cccc(C)c2C)c1	-6	0.7	-5	3.0	-4	-3.9	4.7	-4
CNC(=O)c1cc(C(=O)c2ccc(F)cc2C(F)(F)F)c[nH]1	-7	0.3	-1	5.3	-2	-0.8	0.6	0
NC(=O)c1nsc(C(=O)N(c2ccc(F)cc2)C(C(=O)NC2CCCC2)c2ccncc2)c1N (configuration not stated)	-2	0.1	2	-66	1	-10	-0.1	4
COc1cccc(-n2nnc(S(=O)(=O)c3ccc(C)cc3)c2N)c1	16	1.0	2	5.2	-5	-0.5	-0.6	-2
CCOC(=O)N1CCN(C(=O)c2ccc(CS(=O)(=O)c3c(Cl)cccc3Cl)o2)CC1	0	0.2	-6	x	2	-3.9	-3.1	0
O=C(/C=C/c1cn(CC(O)CN2CCCCC2)c2ccccc12)c1cccs1 (configuration not stated)	4	0.7	-5	1.5	-139	-28	-18	-7
O=C(c1ccccc1)N1CCN(C(=O)c2nn3c(C(F)(F)F)cc(-c4ccccc4)nc3c2Br)CC1	-12	0.9	-7	1.1	2	4.5	1.5	-9
CC(/C=C1\SC(=S)N(NC(=O)c2cccc(O)c2)C1=O)=C\c1ccccc1	-9	0.6	6	9.5	5	1.5	-1.4	-23
C=C(C)C1CC=C(C)/C(=N/NC(=O)c2ccc(NC(=O)c3cccc(C)c3)cc2)C1 (configuration not stated)	-5	0.7	5	x	12	0.8	u	1
Cc1ccccc1N=C1SCC(=O)N1Cc1ccccc1	11	0.5	-6	5.4	-2	-5.0	1.7	12
CSc1ncc(C(=O)Nc2ccccc2Cl)c(C)n1	-9	-0.4	-3	2.2	-5	-6.4	u	-4
CC1Sc2ccc(S(=O)(=O)N3CCC(C(=O)N(C)Cc4ccccc4)CC3)cc2NC1=O (configuration not stated)	-1	0.2	11	1.6	4	-1.2	1.7	18
Cc1nc2ccc(C(=O)N3c4ccccc4CC3C)cc2s1 (configuration not stated)	-4	0.3	8	-1.1	-10	-0.4	-1.2	116*
CC(C)C(=O)NC(Nc1ccc(S(N)(=O)=O)cc1)C(Cl)(Cl)Cl (configuration not stated)	-7	0.5	-6	-0.8	17	-1.0	4.9	-3
CC(=O)c1c(C)[nH]c(C(=O)Nc2cccc(S(=O)(=O)N(C)c3ccccc3)c2)c1C	17	0.3	6	-0.9	7	3.4	3.3	7
COc1ccccc1CCNC(=O)C(=O)NCC1OCCN1S(=O)(=O)c1ccc(C)cc1 (configuration not stated)	-11	0.1	1	2.1	0	4.4	2.4	-6
Cc1ccc(C)c(NC(=O)CN2C(=O)c3ccccc3C2=O)c1	-1	1.0	-1	1.9	-4	-3.5	1.8	-19
CCc1nnc(NC(=O)Cn2c(=O)oc3ccccc32)s1	-1	1.0	-4	-0.1	10	0.6	1.6	-2
Nc1ccc(-n2nnnc2CN2CCOCC2)cc1	-7	0.9	-7	-1.0	-15	1.8	-3.4	10
S=C(NCc1ccc(Cl)cc1)NC12CC3CC(CC(C3)C1)C2	57*	-0.1	74	1.2	1	-0.7	-0.5	u
Cc1ccc(C)c(NC(=O)COC(=O)CC2c3ccccc3CCN2S(=O)(=O)c2ccc(F)cc2)c1 (configuration not stated)	-14	0.5	x	5.0	-3	-0.1	1.5	2
O=C(NCn1cnccc1=O)c1ccccc1	-15	0.4	0	-0.5	5	-3.8	-2.3	-7
COc1cccc(CCNC(=O)CCCC(=O)c2ccccc2)c1	-3	-0.7	-5	3.5	-7	2.4	1.1	-1
Cc1ccc(-c2nnnn2CS(=O)(=O)c2ccccc2)cc1	-4	0.2	x	-0.3	5	1.3	0.7	23
COc1ccc(-c2nc(CS(=O)CC(=O)NC3CCC(C)CC3)c(C)o2)cc1OC (configuration not stated)	20	-0.7	-3	1.3	15	0.7	0.7	-3
O=C(Nc1ccc(Cl)cn1)c1cccc(F)c1	-10	-0.3	15	1.4	-6	-3.0	3.5	-9
O=C(CCCN1C(=O)S/C(=C\C=C\c2ccccc2)C1=O)Nc1ccc(O)cc1	2	0.5	-1	3.2	10	2.4	1.2	6
CC(C)(C)NC(=O)CSc1nnc(-c2ccncc2)n1Cc1ccccc1	-1	1.7	-2	0.6	0	-1.6	8.0	-3
C=CCn1c(NCc2ccc(OC)cc2)nc2ccccc21	-9	0.4	x	-1.1	-1	-3.5	0.9	-9
CCCCn1c(N)c(S(=O)(=O)c2ccc(C)cc2)c2nc3ccccc3nc21	46	0.3	0	-297	1	-4.0	3.2	-17
O=C(CCc1nc2ccccc2c(=O)[nH]1)N1CCCc2ccccc21	5	-0.4	4	-4.3	1	-0.6	2.7	x
N#C/C(=C\c1ccc[nH]1)C(=O)NCC1CCCO1 (configuration not stated)	-2	-0.1	x	18	-4	-0.4	-1.1	-12
Cn1c(=O)c(=O)n(C)c2cc(S(=O)(=O)N3CCN(C4CCCCC4)CC3)ccc21	7	-2.3	x	5.6	-6	2.2	2.8	2
O=C(COC(=O)c1ccc(Br)o1)NCC(=O)Nc1ccc(F)cc1	x	1.0	-4	-3.2	1	-0.7	x	x
O=S(=O)(c1ccccc1)N(Cc1ccc(Cl)cc1)c1ccncc1	-4	0.8	-4	0.6	-2	0.5	-2.7	-2
CCOC(=O)Cn1nnc2c(sc3nc4c(c(-c5ccccc5)c32)CCC4)c1=O	17	-0.3	1	-0.4	-20	-1.2	0.2	3
CC(C)(C)C(=O)Nc1nnc(SCc2ccc(F)cc2)s1	15	-0.2	-2	3.6	7	1.5	5.5	-31
C=CCSc1ccc(S(=O)(=O)N2CCN(C)CC2)cn1	x	0.6	-3	-1.4	-2	0.4	x	x
Cc1ccc(Cl)cc1NC(=O)CCS(=O)(=O)c1cccc2nonc12	-5	-0.1	-4	-4.2	-2	3.9	-2.1	-4
CCOC(=O)c1c[nH]c2c(C(F)(F)F)cccc2c1=O	-5	-0.4	2	-2.5	0	1.5	3.5	16
CC1=CCC2COC(c3ccc[n+](Cc4ccccc4)c3)C1C2 (configuration not stated)	18	-0.3	-14	4.8	8	5.1	0.0	-5
Cc1cccc(-n2c(=O)[nH]c3c(C(N)=O)nc(-c4ccccc4Cl)nc32)c1	15	0.0	0	x	6	-4.6	5.1	32
CCOc1ccc(CNc2cccc(SC)c2)cc1	9	0.2	-14	4.0	3	4.1	2.5	7
CCN(CC)C(=O)/C=C/c1ccc(OC)c(S(=O)(=O)N2CCCCC2)c1	-11	-0.2	-5	0.6	-3	0.3	-2.3	-3
COc1cccc(-n2ccnc2SCC(=O)Nc2cc(C)on2)c1	-10	0.0	3	2.5	0	-3.3	0.5	0
CC(C)(C)OC(=O)NN=C(c1ccc(O)cc1)c1ccc(O)cc1	5	-1.4	3	-1.3	-3	-0.4	0.5	-6
CCc1ccc(N2C(=O)CC(Cn3nc(C)cc3C)C2=O)cc1 (configuration not stated)	-10	0.1	0	6.8	5	0.0	1.2	-6
CCCCN(C(=O)C1=NN(c2cc(C)ccc2C)C(=O)CC1)c1c(N)n(CCC)c(=O)[nH]c1=O	x	-1.0	1	2.5	0	2.9	x	x
Cc1ccc(OCCn2cc(Br)c(=O)[nH]c2=O)cc1	-13	0.1	3	2.1	0	1.3	-1.6	-11
CCCC1=NN(c2ccc([N+](=O)[O-])cc2)C(=O)/C1=C\N(C)C	-16	-7.1	4	13	-1	1.3	4.0	-2
CCCn1c(=O)c2c(C(F)(F)F)cc(-c3cccs3)nc2n(CCC)c1=O	2	-1.2	6	i	-6	-16	1.6	1
CC(C)(C)NC(=O)C(=O)NNC(=O)c1ccc(C(C)(C)C)cc1	-17	-1.0	19	5.6	-2	0.6	5.9	5
CC(C)(C)c1nc[nH]c(=O)c1Br	-35	0.0	-1	3.3	0	x	3.7	-14
O=C(CSc1nnc(CNC(=O)c2c(F)cccc2Cl)o1)NCc1ccccc1	1	0.1	-5	0.3	-5	6.5	6.9	-4
CCOc1ccc(-c2ncncc2-c2ccccc2OC)c(O)c1	41	u	-13	7.0	0	3.7	-1.2	-5
CCc1cccc(C)c1NC(=O)c1cc(=O)[nH]c2ccc(S(=O)(=O)N3CCOCC3)cc12	x	0.0	1	-3.0	2	0.6	x	x
Cc1cccc(NC(=O)Cc2ccc(F)cc2)c1	1	0.1	0	4.1	-7	-3.8	2.5	-19
New compounds follow
SMILES	T cruzi inh	Bfl-1 A1 inh	Beta apoptosis	UCH37 inh	B2AR ag	LANA-H2B inh	RanGTP-Imp inh	Calb FLC
CCC(CC)C1=NN2C(=N)/C(=C/c3ccc(OC(=O)c4ccco4)cc3)C(=O)N=C2S1	0	-0.3	-3	7.2	12	5.3	0.4	1
CC(C)CNC(=O)c1cc([N+](=O)[O-])ccc1N1CCOCC1	-6	-0.3	x	4.9	-4	-1.8	1.8	2
COc1ccc(S(=O)(=O)N2CCOC23CCN(S(=O)(=O)c2ccc(C)cc2)CC3)cc1	4	-0.2	x	2.8	1	-3.4	6.3	0
O=S(=O)(NC1CCCCC1N1CCN(c2ccccc2F)CC1)c1ccc(Cl)cc1 (configuration not stated)	14	0.5	24	3.7	6	-7.1	-1.0	7
CCc1ccc(-n2c(SCc3cc(=O)n4cc(Br)ccc4n3)nc3[nH]ncc3c2=O)cc1	22	-0.5	16	-2.3	13	4.7	6.1	28
Cc1c(Cl)cccc1NC(=S)NCCCN(C)C	45	-0.2	-7	3.1	4	4.6	0.2	-4
CCCCNC(=O)Nc1cc(C(=O)OC)ccc1Cl	-20	0.2	-2	4.4	3	3.2	-0.1	-2
O=C(Nc1ccc(S(=O)(=O)Nc2ncccn2)cc1)c1ccc(N2CCCC2=O)cc1	-1	1.1	-1	1.8	-14	-2.8	u	0
Cc1ccc(OCC(=O)N/N=C\c2c(C)[nH]n(-c3ccccc3)c2=O)c([N+](=O)[O-])c1	-22	0.6	87*	x	1	-1.2	2.9	106*
O=C1C2C3c4ccccc4C(Br)(c4ccccc43)C2C(=O)N1c1ccccc1O (configuration not stated)	9	0.3	-6	6.2	2	-12	-2.5	-1
O=C(O)Cc1n[nH]c(=O)c2ccccc12	-14	-0.7	0	3.2	8	3.1	8.1	-15
COC(=O)C1=C(C)N(Cc2ccc(C)cc2)C(=O)/C1=C\c1ccc(O)c(OC)c1	-6	-0.2	2	3.6	26	1.0	-3.2	14
Cc1nnc(NC(=O)CSc2ccccn2)s1	-3	0.7	x	5.1	-10	-7.9	x	-15
